Source: PubChem BioAssay
2A firefly – lowers the firefly signal of an FMDV 2A StopGo reporter. HEK cells with a luciferase reporter of 2A StopGo recoding. Potency, µM (titrated, usually from 57.5 µM), for the others: top-dose signal change, negative = less light. 0.23% of 120,000 active; active = well fitted falling curve with a large enough effect; inconclusive = small, poorly fitted or top-dose-only effect; inactive = no such curve, though single readings can be large or run the other way; note: nearly all actives have a fitted effect of over 60% in size; overnight with compound
2A Renilla – lowers the Renilla signal of an FMDV 2A StopGo reporter; HEK cells with a luciferase reporter of 2A StopGo recoding; Potency, µM (highest dose often 57.5 µM), for the others: at the highest dose signal change, negative = less light; 0.32% of 120,000 active; active means well fitted falling curve with a large enough effect; inconclusive means small, poorly fitted or top-dose-only effect; inactive means no such curve, though single readings can be large or run the other way; note: nearly all actives have a fitted effect of over 55% in size; overnight with compound
An asterisk follows results filed as active; ? = inconclusive; [ ] = remark or other dose. % is set by controls: 0 for no effect and ±100 for the full control effect; potency is the fitted concentration of half-maximal effect. These rows are one share of the data. The share of hits here may be higher or lower than overall.

Order of results: 2A firefly, 2A Renilla
> Cc1cccc(C)c1NC(=O)CCCn1c(=O)c2cccn2c2ccccc21
    -19%, 18%
> CCc1ccc(C(=O)N(Cc2ccncc2)C2CC2)s1
    11%, 16%
> CSc1ncc2c(=O)n(CC(=O)Nc3ccccc3F)cnc2n1
    50%[activator], 1%
> O=C(CCc1ncc(-c2ccccc2F)o1)Nc1cccc(C(=O)NC2CC2)c1
    17%, 9%
> O=C(CCC(=O)Nc1cccc(C(F)(F)F)c1)NCCc1ccccc1
    14%, 11%
> COC(=O)c1ccccc1NC(=O)CSc1nnc(-c2ccc(Cl)cc2)n1Cc1ccco1
    5%, 0%
> O=C(CCn1nc(-c2ccccc2)c2ccccc2c1=O)Nc1cccc2ccccc12
    -19%, 12%
> NC(=O)C1CCN(C(=O)CCSc2nc(-c3ccc4c(c3)OCO4)cc(C(F)(F)F)n2)CC1
    -1%, 8%
> COc1cccc(CNC(=O)CSc2nnc(C)n2C2CC2)c1
    -6%, -1%
> Cc1ccc(C(C)C)c(OCCCn2c(=O)oc3ccc(C)cc32)c1
    -5%, 8%
> COCCN(Cc1ccc(C)c(Br)c1)S(=O)(=O)c1ccc2[nH]c(=O)ccc2c1
    11%, 7%
> CSc1ccc(NC(=O)c2cc(F)ccc2F)cc1
    226%[activator], 30%[activator]
> CCS(=O)(=O)N1CCC2(CC1)OC(=O)C(C)=C2C(=O)NCc1cccc(Cl)c1
    -27%, -19%
> CC(C)N(CCNC(=O)c1ccc2ccccc2n1)C(C)C
    -6%, -9%
> CCc1ccc(CNC(=O)c2sc3ncccc3c2-n2c(C)ccc2C)cc1
    11%, 96%[activator]
> O=S(=O)(NCCc1cn2ccsc2n1)c1ccc(Cl)cc1
    -22%, 57%[activator]
> Cn1cc(C(C(=O)O)N2CCN(c3ncccn3)CC2)c2ccc(C(=O)O)cc21 (stereo not given)
    -11%, -15%
> O=C(OCc1ncc(-c2ccc(Cl)cc2)o1)c1ccc(F)cc1
    0%, 3%
> CC(C)N1C(=O)S/C(=C\c2cc(Br)ccc2OCc2ccc(C(=O)O)cc2)C1=O
    -10%, -29%
> COc1cccc(NC(=O)N(Cc2c[nH]c3ccccc23)C2CCCCCC2)c1
    160%[activator], 53%[activator]
> CCc1cccc(NC(c2ccccc2)c2nnc(-c3ccccc3F)o2)c1 (stereo not given)
    33%[activator], 95%[activator]
> FC(F)(F)c1cnc(Sc2nnc3sc4ccccc4n23)c(Cl)c1
    5%, 13%
> CC(=O)c1ccc(NC(=O)CSCc2cccc(F)c2)cc1
    0%, 45%[activator]
> CCOc1ccc(-n2nc3ccc(NC(=O)COc4ccccc4C)cc3n2)cc1
    10%, -2%
> Cc1c(-c2ccccc2)n(-c2ccccc2O)c2nc3c(c(=O)n(C)c(=O)n3C)n12
    -2%, -3%
> Oc1ccc(Cl)cc1Cc1cc(Cl)ccc1O
    -5%[11.5 µM], ?
> Cc1cccc(Cn2c(=O)c3c(nc(-n4nc(C)c(C)c4C)n3C)n(C)c2=O)c1
    -9%, -6%
> Cc1cccc(NC(=O)C2CCCN(c3nc4ccccc4s3)C2)c1C (stereo not given)
    6%, -7%
> CCn1c(NC(=O)c2oc3ccccc3c2CSC)nc2ccccc21
    0%, -3%
> Cc1ccc(-c2noc(CN(C3CCCCC3)S(=O)(=O)c3ccc(Cl)cc3)n2)cc1
    -23%, 4%
> Cc1ccc(NC(=O)Cn2c(=O)n(Cc3ccc4c(c3)OCO4)c(=O)c3ccccc32)cc1
    -6%, 1%
> COc1ccc(NC(=O)c2ccc3c(SCC(=O)O)c4c(nc3c2)CCC4)c(OC)c1
    -10%, -6%
> OC(CNCC1(c2ccccc2)CCCC1)COc1ccccc1 (stereo not given)
    4%, 8%
> Cc1nc(/C=C/C(=O)N(CCc2ccccc2)Cc2cccs2)cs1
    4%, 38%[activator]
> Cc1ccc(C)c(COC(=O)Cn2cnc3c2c(=O)n(C)c(=O)n3C)c1
    6%, 1%
> Cc1ccc(Cc2cnc(NC(=O)c3ccc4c(c3)CC(c3ccccc3)OC4=O)s2)cc1 (stereo not given)
    -6%, -12%
> O=C(OCc1ccccc1)c1ccc2nccnc2c1
    23%, -9%[1.06 µM]
> CC(C)(C)c1ccc(/C=N/NC(=O)Cc2ccccc2)cc1
    259%[activator], 25%
> CC(OC(=O)c1cc(S(=O)(=O)N(C)C)ccc1N1CCCC1)C(=O)NC1CCCC1 (stereo not given)
    0%, 9%
> CCOc1ccccc1CNC(=O)C1CCN(c2nn3cc(-c4ccc(F)cc4)nc3s2)CC1
    48%[activator], -18%
> CCn1c2ccccc2c2cc(NC(=O)COc3cc(C)c(Cl)c(C)c3)ccc21
    -4%, -12%
> CCC(C(=O)NCc1cc(OC)ccc1OC)n1nc(C)c2sc3ccccc3c2c1=O (stereo not given)
    0%, 4%
> CCN(CC)CCCNc1oc(-c2ccc([N+](=O)[O-])cc2)nc1C#N
    8%, -6%
> Cc1nn(CC(=O)NCCOc2ccccc2)c(=O)c2ccccc12
    24%, -10%
> Cc1ccc(CNC(=O)c2nc(SCc3cccc(C)c3)ncc2Cl)cc1
    ?, ?
> Cc1ccc(Nc2nc(NC3CCCC3)nc3c2cnn3C)cc1C
    0%, -12%
> O=C(NCCc1csc2nc(-c3ccccc3F)nn12)c1ccccc1C(F)(F)F
    -3%, 7%
> COc1cccc2c(Nc3ccc(C)cc3)cc(C)nc12
    -10%, -16%
> O=C(NCCN1CCN(C(=O)c2ccc(Br)cc2)CC1)c1ccc(Br)cc1
    ?, ?
> CCOc1ccc(CCn2c3c(c(=O)[nH]c2=O)C(NC(=O)c2ccccc2)(C(F)(F)F)C(=O)N3)cc1OCC (stereo not given)
    -12%, -8%

The list continues:
Order of results: 2A firefly, 2A Renilla
> O=C(Nc1ccc(C(F)(F)F)cc1)c1ccc(N2C(=O)CCS2(=O)=O)cc1
    -1%, 4%
> COc1ccc(CCNc2nc(-c3ccccc3OC)cc(C(F)(F)F)n2)cc1OC
    0%, -6%
> Cc1c(Cl)cccc1NC(=O)Cn1nc(C(=O)O)c2ccccc2c1=O
    -18%, -16%
> C=C(C)Cn1c(SC)nc2c1c(=O)n(C)c(=O)n2C
    0%, 10%
> COc1cc(NC(=O)CSc2nc(Cl)nc3nc[nH]c23)cc(OC)c1OC
    13%, 5%
> C/C(=C\c1ccccc1)C(=O)NCC(C)C
    185%[activator], -2%
> COc1cc2cc(C(=O)N[C@@H](C)C(=O)Nc3ccc4c(c3)OCO4)[nH]c2c(OC)c1OC
    19%, 17%
> CCCCOc1ccc2c(C)c(CC(C)C)c(=O)oc2c1
    73%[activator], -4%
> CCOC(=O)N1CCN(Cc2nc3cc(NC(=O)c4ccc(Cl)cc4)ccc3n2C(C)C)CC1
    ?, ?
> CCN(CC)C(=O)C(Sc1nnc(-c2ccc(Cl)cc2Cl)n1N)c1ccccc1 (stereo not given)
    -2%, 18%
> Cc1ccccc1-c1noc(CN2CCC(O)CC2)n1
    80%[activator], 2%
> CCOC(=O)C(NC(=O)COc1cccc2ccccc12)C(=O)OCC
    -7%, -5%
> Cc1cc(OC(C)C(=O)N(Cc2ccc(N(C)C)cc2)Cc2ccco2)ccc1Cl (stereo not given)
    6%, 4%
> COc1cccc(Oc2nc3c(c(=O)n(Cc4ccccc4Cl)c(=O)n3C)n2C)c1
    0%, -2%
> Cc1ccc(CNc2ccc(C(N)=O)cn2)cc1
    29%, 16%
> Cc1ccccc1NC(=O)CN(C)S(=O)(=O)c1cccc2nsnc12
    -22%, 4%
> Cc1cccc(N(C)S(=O)(=O)c2ccc3c(c2)NC(=O)CC(=O)N3)c1
    -13%, 4%
> Cc1ccc(C)c(/C=C/C(=O)c2cccc(O)c2)c1
    0%, 28%
> Cc1nc2ccn(Cc3cccs3)c(=O)c2cc1C(=O)Nc1ccccc1
    0%, -3%
> Cc1cc(C)c(S(=O)(=O)NCC(c2ccc(N(C)C)cc2)N2CCOCC2)c(C)c1 (stereo not given)
    -25%, 155%[activator]
> COc1ccc(C(=O)c2cn(CC(=O)Nc3cc(OC)cc(OC)c3)c3ccc(OC)cc3c2=O)cc1
    -13%, -7%
> CC(C)C(=O)Nc1ccc(NC(=O)Nc2cccc(Cl)c2)cc1
    63%[activator], 8%
> Cc1ccc2occ(C3CC(=O)Nc4c3c(C)nn4-c3ccc(Cl)nn3)c(=O)c2c1 (stereo not given)
    4%, 2%
> C/C(=C\C(=O)c1ccccc1)C(=O)c1ccc(Br)cc1
    0%, -9%
> CCOc1ccc(C2C(C#N)=C(N)Oc3cc(C)n(Cc4cccnc4)c(=O)c32)cc1OCC (stereo not given)
    16%, 26%
> Cc1ccc2oc(=O)c3cnn(CC(=O)N4CCN(c5cccc(C(F)(F)F)c5)CC4)c3c2c1
    -12%, -6%
> O=C(Nc1ccc(C(F)(F)F)oc1=O)c1ccc(Cl)cc1
    0%, 9%
> Cc1ccccc1Cn1c(=O)n(CCC(=O)NCCc2ccc(Cl)cc2)c(=O)c2sccc21
    -3%, -2%
> CCC(CC)NC(=O)CSc1ncc(-c2ccc(F)cc2)o1
    0%, 1%
> CCOc1ccc(NC(=O)c2oc3ccccc3c2NC(=O)C(C)Oc2ccccc2)cc1 (stereo not given)
    50%[activator], 0%

Quoted from the listing.
2A firefly, NC(=O)C1CCN(C(=O)CCSc2nc(-c3ccc4c(c3)OCO4)cc(C(F)(F)F)n2)CC1 reads -1%
2A Renilla, COC(=O)c1ccccc1NC(=O)CSc1nnc(-c2ccc(Cl)cc2)n1Cc1ccco1 reads 0%

Next structures:
Order of results: 2A firefly, 2A Renilla
> Cc1oc(-c2ccccc2)nc1CC(=O)Nc1ccc(OC(F)F)cc1
    4%, 29%
> CC(NC(=O)c1ccc(-c2ccccc2)cc1)c1ccccc1 (stereo not given)
    48%[activator], 13%
> O=S(=O)(c1ccc(SCc2cc3c(cc2Br)OCCO3)nc1)N1CCOCC1
    -8%, 58%[activator]
> CCCc1cc(=O)[nH]c2nnc(SCC(=O)Nc3ccc(OC)cc3)n12
    -13%, -8%
> COc1ccc(C(=O)Oc2ccc(Cl)cc2C)c(OC)c1
    57%[activator], 16%
> CCCOc1ccc(-c2nc(C#N)c(N3CCCC3)o2)cc1
    1%, 13%
> Cc1cccc(NC(=O)CCNC(=O)C2CCCC2)c1C
    1%, 8%
> CC(C)CCCNCCNC(=O)/C=N/O
    ?, ?
> COc1ccc(Br)c(C2Oc3nc(SC)nnc3-c3ccccc3N2C(C)=O)c1 (stereo not given)
    13%, 23%
> O=C(NCCCN1CCCC1=O)c1nc(-c2ccc3[nH]ccc3c2)no1
    166%[activator], 26%
> O=C(CCN=C1NS(=O)(=O)c2ccccc21)Nc1ccc(Cl)cc1F
    46%[activator], 72%[activator]
> Cc1ccccc1C(=O)NC(NC(=O)c1ccccc1C)c1ccccc1
    5%, 58%[activator]
> COC(=O)[C@H](C(C)C)N(CCCc1cn(Cc2ccccc2)nn1)S(=O)(=O)c1ccccc1Br
    -12%, 123%[activator]
> COc1ccccc1C(=O)Nc1c(C(=O)N2CCN(c3ccc(F)cc3)CC2)oc2ccccc12
    -8%, -5%
> COc1ccc(NC(=O)C(=O)NCC2(c3ccc(OC)c(OC)c3)CCCC2)cc1
    -15%, -10%
> COc1ccc(CCNCc2ccc(C)s2)cc1
    0%, -3%
> CC1CCN(C(=O)CN(c2cc(Cl)cc(Cl)c2)S(=O)(=O)c2ccccc2)CC1
    43%, 143%[activator]
> CCCOc1ccc(C(=O)N2CCN(c3nc4sc5c(c4c(=O)n3C)CCCC5)CC2)cc1
    -10%, -5%
> Cn1nc(C(=O)Oc2cc(Cl)ccc2Cl)c2ccccc2c1=O
    -2%, -9%
> O=C(NC(Cc1cc(=O)[nH]c2ccccc12)C(=O)O)c1ccc(Cl)cc1 (stereo not given)
    -16%, -12%

Given bar-delimited: 15 of the compounds above
mol | 2A firefly | 2A Renilla
O=S(=O)(c1ccc(SCc2cc3c(cc2Br)OCCO3)nc1)N1CCOCC1 | -8% | 58%[activator]
CCCc1cc(=O)[nH]c2nnc(SCC(=O)Nc3ccc(OC)cc3)n12 | -13% | -8%
COc1ccc(C(=O)Oc2ccc(Cl)cc2C)c(OC)c1 | 57%[activator] | 16%
CCCOc1ccc(-c2nc(C#N)c(N3CCCC3)o2)cc1 | 1% | 13%
Cc1cccc(NC(=O)CCNC(=O)C2CCCC2)c1C | 1% | 8%
CC(C)CCCNCCNC(=O)/C=N/O | ? | ?
COc1ccc(Br)c(C2Oc3nc(SC)nnc3-c3ccccc3N2C(C)=O)c1 (stereo not given) | 13% | 23%
O=C(NCCCN1CCCC1=O)c1nc(-c2ccc3[nH]ccc3c2)no1 | 166%[activator] | 26%
O=C(CCN=C1NS(=O)(=O)c2ccccc21)Nc1ccc(Cl)cc1F | 46%[activator] | 72%[activator]
Cc1ccccc1C(=O)NC(NC(=O)c1ccccc1C)c1ccccc1 | 5% | 58%[activator]
COC(=O)[C@H](C(C)C)N(CCCc1cn(Cc2ccccc2)nn1)S(=O)(=O)c1ccccc1Br | -12% | 123%[activator]
COc1ccccc1C(=O)Nc1c(C(=O)N2CCN(c3ccc(F)cc3)CC2)oc2ccccc12 | -8% | -5%
COc1ccc(NC(=O)C(=O)NCC2(c3ccc(OC)c(OC)c3)CCCC2)cc1 | -15% | -10%
COc1ccc(CCNCc2ccc(C)s2)cc1 | 0% | -3%
CC1CCN(C(=O)CN(c2cc(Cl)cc(Cl)c2)S(=O)(=O)c2ccccc2)CC1 | 43% | 143%[activator]

(list continues)
Order of results: 2A firefly, 2A Renilla
> CCc1cccc(C)c1NS(=O)(=O)c1ccc(-c2cc(C)no2)s1
    31%[activator], 43%[activator]
> CCN(CC)S(=O)(=O)c1ccc(OC(C)C)c(NC(=O)c2ccc(OC(F)F)cc2)c1
    -1%, 1%
> Cc1ccc(-c2cn3cccnc3n2)cc1NC(=O)C(C)(C)Oc1ccc(Cl)cc1
    0%, -1%
> CC(NC(=O)c1ccc(Br)o1)c1ccc(C(F)(F)F)cc1 (stereo not given)
    0%, 27%
